Rango-impB inh: prevents formation of the Rango-importin beta complex; Potency, µM (titrated, usually from 92.2 µM), without a hit: at the highest dose inhibition of complex formation; 0.031% of 340,000 active; AID 540263; Rango CFP/YFP FRET sensor + importin beta, 45 min; active = rising FRET ratio curve, often small or poorly fitted; inconclusive = mostly compound fluorescence or quenching in the first reads; inactive = flat curves in all reads;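 also: potency is read from the fitted curve at half-maximal effect; 0% = DMSO wells and 100% = buffer wells lacking importin beta; nearly all actives have a fitted effect of over 15% in size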
Target sequence (Q14974 whole entry, looked up): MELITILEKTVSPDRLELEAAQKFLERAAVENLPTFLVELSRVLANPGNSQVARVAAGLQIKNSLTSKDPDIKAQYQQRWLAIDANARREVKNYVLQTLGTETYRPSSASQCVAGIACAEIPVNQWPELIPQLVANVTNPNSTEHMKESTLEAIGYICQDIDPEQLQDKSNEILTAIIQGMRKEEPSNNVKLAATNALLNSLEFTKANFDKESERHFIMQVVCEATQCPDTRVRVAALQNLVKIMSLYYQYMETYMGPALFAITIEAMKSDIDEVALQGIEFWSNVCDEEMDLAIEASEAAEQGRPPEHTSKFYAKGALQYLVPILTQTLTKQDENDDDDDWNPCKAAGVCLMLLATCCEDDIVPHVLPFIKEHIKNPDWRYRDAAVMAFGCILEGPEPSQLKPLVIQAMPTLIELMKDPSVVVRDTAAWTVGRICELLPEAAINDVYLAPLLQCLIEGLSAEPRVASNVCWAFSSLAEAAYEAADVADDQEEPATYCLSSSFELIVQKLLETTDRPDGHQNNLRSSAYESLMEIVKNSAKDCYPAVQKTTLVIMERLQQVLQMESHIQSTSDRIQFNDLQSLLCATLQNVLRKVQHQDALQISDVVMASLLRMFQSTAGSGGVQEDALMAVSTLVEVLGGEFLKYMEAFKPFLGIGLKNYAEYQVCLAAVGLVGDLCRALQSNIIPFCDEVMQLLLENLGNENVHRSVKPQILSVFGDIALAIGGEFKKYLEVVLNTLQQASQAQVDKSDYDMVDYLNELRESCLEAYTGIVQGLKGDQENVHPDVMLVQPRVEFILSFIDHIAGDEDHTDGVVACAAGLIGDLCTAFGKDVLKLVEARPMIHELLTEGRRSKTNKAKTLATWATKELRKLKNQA
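FRET biosensor (snurportin 1 IBB flanked by EYFP and cerulean), 50 nM, with compound 5 min, then 0.125 microM importin beta in PBS, 1 mM DTT, 0.02% Tween-20, 0.1% BSA. CFP/YFP ratio read after 45 min at room temperature; pre-read flags interference.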
miR-21 FLuc: miR-21 reporter, rising signal | Potency, µM (doses to about 38.3 µM), for the others: top-dose reporter change, positive = more light | 340,000 tested, under 10 active | HeLa miR-21 FLuc reporter, luciferase, 48 h; active = well fitted rising curve with a large enough effect; inconclusive = small, poorly fitted or top-dose-only effect; inactive = no such curve, though single readings can be large or run the other way;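 also: % of control where 0% means no effect; miR-21 action dims this reporter so a rising signal means less miR-21 action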
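HeLa miR-21-FLuc reporter line, endogenous miR-21; 2000 cells/well in DMEM/10% FBS; compound titration up to ~40uM final, 48 h, 37 degree Celsius; luciferase detection reagent, 15 min lysis, CCD luminescence.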
Rango release inh: prevents RanGTP from dissociating the Rango-importin beta complex | O95149+P62826 | Biochemical FRET Rango-importin beta, RanGTP-induced dissociation | Potency, µM (top dose mostly 46.1 µM), for the others: top-dose activity change, negative = inhibition | 0.071% of 340,000 active | AID 540253; active means falling FRET ratio curve, often poorly fitted, with flat reads before Ran was added; inconclusive means other falling curves, or compound fluorescence or quenching; inactive means flat or rising ratio curve;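 also: potency is read from the fitted curve at half-maximal effect; % of control where 0% means no effect; nearly all actives have a fitted effect of over 45% in size; -100% = wells without RanGTP and RCC1; the record marks most hits as doubtful in a second field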
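Compounds preincubate 5 min with complex of recombinant Rango and importin beta in PBS with 1 mM DTT. Ran (0.6 uM) loaded with 2 mM GTP plus 0.2 uM RCC1 starts dissociation; FRET is recorded 45 min later.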
GLA inh pH 4.5: alpha-galactosidase A (human) inhibition, pH 4.5; P06280; purified enzyme, 4-MU-alpha-Gal fluorescence, pH 4.5; activity change, negative = inhibition, % at 105 µM; 230,000 tested, under 10 active; AID 1467; inconclusive = small, poorly fitted or top-dose-only inhibition, or a rising curve; inactive = flat fitted curve, though single readings scatter; no compound was filed as active;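 also: 0% = full activity with enzyme and -100% = basal without enzyme; dose as in the result columns while the protocol names 77 µM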
Numbers without * were called inactive; ? = inconclusive; · = no result given; & = joins results of further samples.

SMILES	Rango-impB inh	miR-21 FLuc	Rango release inh	GLA inh pH 4.5
C=CCc1cccc(Cl)c1OCCCNC1CCCC1	3.1%	12%	9%	·
CCOC(=O)Cc1csc(NC(=O)Cn2c(=O)oc3ccccc32)n1	?	-1%	8%	4
Oc1ccc(NCc2cccs2)cc1	-5.5%	27%	-7%	·
Cc1ccc(-c2nnn(CC(=O)N(Cc3ccccc3)C(C(=O)NC3CCCC3)c3ccncc3)n2)o1 (stereo unspecified)	-4.4%	-10%	4%	-6
O=C(c1ccc(Cl)c(S(=O)(=O)N2CCCCC2)c1)N1CCCC(C(F)(F)F)C1 (stereo unspecified)	-3.5%	·	8%	·
CCCCNC(=O)CSc1nc(O)c(Cc2ccc(OC)cc2)c(=O)[nH]1	2.9%	8%	-1%	9
Cc1cc(NC(=O)c2cccc(S(=O)(=O)N3CCC(C)CC3)c2)no1	-0.7%	5%	1%	·
CN(Cc1ccco1)C(=O)c1c[nH]c2ccc(S(=O)(=O)Nc3ccc4c(c3)OCCO4)cc2c1=O	?	5%	4%	4
NC(=O)COC(=O)CCCSc1nc2ccccc2s1	-13%	19%	-10%	-1
COc1ccc(C)cc1NC(=O)NNC(=O)C1CCC(C(C)(C)C)CC1 (stereo unspecified)	-1.2%	1%	-12%	-8
COc1ccc(/C=N/NC(=O)C(=O)NCC2CCCO2)cc1 (stereo unspecified)	1.1%	-10%	2%	12
COc1ccc(NC2CCCN(C(=O)c3ccc(C)c(N4CCNC4=O)c3)C2)cc1 (stereo unspecified)	0.8%	0%	?	·
Cn1cnnc1SCC(=O)NNC(=O)c1ccc(Cl)cc1	4.8%	-5%	0%	-4
CCCSc1nc2sc3c(c2c(=O)[nH]1)CCN(Cc1ccccc1)C3	?	-30%	?	?
C=CCN1c2ccccc2[C@]23C[C@@H](C(=O)OC)N(C(=O)OCC)C2=NC(C(=O)OC)=C(C(=O)OC)[C@H]13	-3.9%	·	3%	9
CC12CN3CC(C)(CN(C1)C3c1ccc3ccccc3c1O)C2=O (stereo unspecified)	?	0%	-26%	-1
COC(=O)CCC(=O)OC1(C)C(=O)C2=CN(CCCCO)C(c3ccc(OC)cc3)=CC2=C(Br)C1=O (stereo unspecified)	·	3%	·	-8
Cc1nnc(SC(C)C)n(N)c1=O	-1.3%	-3%	-2%	-15
O=C(/C=C/c1ccco1)Nc1cccnc1	4.1%	-28%	3%	4
COc1ccccc1-c1nc(-c2ccc(Br)o2)no1	-0.8%	-15%&-49%	14%	-13
CCN(CC)Cc1ccccc1CNC(=O)c1cccc(S(=O)(=O)Nc2ccc3c(c2)OCO3)c1	-4.8%	·	-1%	·
Cn1c(C(=O)N2CCCC(C(=O)NCCc3ccccc3)C2)cc2sccc21 (stereo unspecified)	3.3%	19%	-13%	-1
CCCCS(=O)c1c(O)c2ccccc2[nH]c1=O (stereo unspecified)	-0.4%	-1%	1%	2
Cc1ccc(S(=O)(=O)NCc2ccccc2)cc1C(=O)NC1CCC(C)CC1 (stereo unspecified)	0.1%	-9%	20%	·
CCN1C(=O)[C@H]2[C@H]3CN=C(SCc4ccc(C#N)cc4)N3[C@@](Cc3ccccc3)(C(=O)OC)[C@H]2C1=O	-2.8%	·	7%	·

Random excerpt: two compounds from above.
SMILES	Rango-impB inh	miR-21 FLuc	Rango release inh	GLA inh pH 4.5
COc1ccc(NC2CCCN(C(=O)c3ccc(C)c(N4CCNC4=O)c3)C2)cc1 (stereo unspecified)	0.8%	0%	?	·
CCCCNC(=O)CSc1nc(O)c(Cc2ccc(OC)cc2)c(=O)[nH]1	2.9%	8%	-1%	9

Other compounds.
SMILES	Rango-impB inh	miR-21 FLuc	Rango release inh	GLA inh pH 4.5
CC(C)N=C(NC#N)SCc1ccc(Br)cc1	-2.4%	-27%	8%	-3
COc1ccc(CCC(=O)Nc2ccc(Cl)c(S(=O)(=O)N3CCOCC3)c2)cc1OC	-0.7%	·	-2%	·
Cc1ccccc1C(=O)NCCCCc1ccccc1	1.4%	-10%	-11%	-2
COc1cccc(C2(CSc3nnc(-c4cc(OC)c(OC)c(OC)c4)o3)OCCO2)c1	-2.7%	-7%	-10%	-2
CCCCC1C2C(=O)N(c3ccccc3)C(=O)C2ON1c1ccccc1 (stereo unspecified)	-0.2%	-10%	2%	1
CCCC(=O)OCCNC(=O)c1cc2ccccc2oc1=O	-0.5%	-6%	19%	5
CC(Sc1nc2sccc2c(=O)n1-c1ccccc1)C(N)=O (stereo unspecified)	0.4%	1%	7%	·
COc1ccc(Nc2nc(C)cc(C)c2C#N)cc1	-1.1%	-6%	0%	6
O=C(NCC1CCCO1)c1cccnc1NCc1ccc(F)cc1 (stereo unspecified)	0.0%	4%	-6%	6
COC(=O)c1c(C)cc(O)cc1O	-1.7%	·	3%	4
CN(C)c1nnnn1-c1ccc(Cl)cc1Cl	5.2%	-11%	11%	-1
Cc1ccc(-n2nc3c(c2NC(=O)c2cccs2)CS(=O)(=O)C3)c(C)c1	0.2%	2%	14%	·
O=c1[nH]nc(-c2ccc(OCc3ccc(Cl)cc3Cl)cc2)o1	0.7%	-2%	34%	·
Cc1ccc(CSCC(=O)Nc2ccc(F)cc2)cc1	-10%	-20%	2%	-2
CCCN(C(=O)c1ccc2c(SCC(=O)O)c3c(nc2c1)CCC3)c1cccc(C)c1	-3.0%	-2%	-4%	·
O=C1Nc2ccccc2/C1=N\N1CCOCC1	-1.1%	-11%	13%	-3
CCn1c(SCc2ccccc2Cl)nc2nc3c(cc2c1=O)CCCC3	1.6%	-11%	-8%	0
O=C(NC(CC(=O)N1CCCC(C(F)(F)F)C1)c1ccccc1)c1ccccc1Cl (stereo unspecified)	-2.7%	0%	4%	·
O=c1onc(-c2ccccc2)c2ccccc12	-2.8%	·	-9%	·
CCOc1ccc(NS(=O)(=O)c2ccc(SC)cc2)cc1	-1.7%	-5%	-5%	1
COc1ccc(N(C(C)C(=O)N2CCC(Cc3ccccc3)CC2)S(C)(=O)=O)cc1 (stereo unspecified)	-1.7%	7%	1%	6
CC(O)[C@H]1CC[C@H]2[C@@H]3CC[C@H]4C[C@@H](O)CC[C@]4(C)[C@H]3/C(=N/O)C[C@]12C (stereo partly specified)	-1.0%	·	20%	·
CC(=O)NC(Cc1c[nH]c2ccccc12)C(=O)OCC(=O)Nc1ccc2c(c1)OCO2 (stereo unspecified)	-0.7%	14%	6%	-9
CCn1c(SCC(=O)c2ccccc2)nnc1-c1cc2cc(Br)ccc2o1	5.0%	-10%	11%	7
CC(=O)c1ccc(-n2nnnc2SCC(=O)NNC(=O)c2ccco2)cc1	-4.2%	-1%	4%	11

Copied from the list.
Value for CCCSc1nc2sc3c(c2c(=O)[nH]1)CCN(Cc1ccccc1)C3 under miR-21 FLuc: -30%
Value for O=C(/C=C/c1ccco1)Nc1cccnc1 under GLA inh pH 4.5: 4

Other results:
SMILES	Rango-impB inh	miR-21 FLuc	Rango release inh	GLA inh pH 4.5
COc1ccc(N(C)S(=O)(=O)c2ccc3c(c2)CCN3C(=O)C2CC2)c(OC)c1	0.5%	-1%	8%	·
Cc1ccc(SCc2cc(=O)[nH]c(N3CCN(Cc4ccc5c(c4)OCO5)CC3)n2)cc1	-0.1%	-2%	13%	-4
Cn1cc(Br)c(C(=O)Nc2nccs2)n1	1.3%	-27%	-17%	4
COc1ccc(CNC(=O)C2CCN(S(=O)(=O)c3cccc(C(F)(F)F)c3)CC2)cc1	2.0%	·	15%	·
COc1ccc(CC(=O)Nc2c(C(N)=O)oc3ccccc23)cc1	-0.2%	14%	22%	·
Cc1cc2ccccn2c1C(=O)c1ccc(F)cc1	0.2%	0%	-1%	·
COCCC(=O)N1CCC(Oc2ccc(C(=O)N3CCC(N(C)C)C3)cc2)CC1 (stereo unspecified)	-3.5%	-5%	-2%	·
Cc1cc(C)c(NC(=O)c2cc3c(nc4sccn43)s2)c(C)c1	-0.8%	-13%	2%	0
CC1CC(C)CN(C(=O)CSc2nnc(CSc3ncccn3)n2C)C1 (stereo unspecified)	-0.8%	-9%	-1%	9
O=C(Cc1cccc(NC(=O)C2CCCN(C(=O)C3CCC3)C2)c1)Nc1cccc(C(=O)N2CCOCC2)c1 (stereo unspecified)	-0.4%	·	39%	·
C=CCn1c(SCC(=O)N(C)C2CCS(=O)(=O)C2)nc2ccccc2c1=O (stereo unspecified)	-1.4%	1%	1%	-13
CCn1c(C)nc2cc(C(=O)N/N=C/c3ccc(N4CCOCC4)cc3)ccc21	0.1%	-11%	0%	-8
Cc1c(NC(=O)N2CCCCCC2)c(=O)n(-c2ccccc2)n1C	0.6%	-5%	1%	4
Cc1nn(C(C)C(=O)NNC(=S)Nc2ccc(F)cc2)c(C)c1[N+](=O)[O-] (stereo unspecified)	-1.9%	-5%	-6%	11
Cc1ccc2nc(NC(=O)CN3CCOCC3)sc2c1	2.2%	-42%	17%	-4
Cc1c(Br)ccc(NC(=O)Cn2nc(-c3cccs3)ccc2=O)c1C	-0.2%	0%	-2%	·
COc1cc(CSc2ncn[nH]2)c(OC)cc1CSc1ncn[nH]1	8.0%	5%	13%	-10
O=C(NC1CCCC1)C1CCCN(C(=O)Nc2ccccc2)C1 (stereo unspecified)	0.0%	-1%	8%	·
COc1ccccc1-c1nc(C(N)=O)c2[nH]c(=O)n(-c3cccc(C)c3)c2n1	-5.0%	-13%	-5%	4
CSCCC(N=C(NS(=O)(=O)c1ccc(C)cc1)c1ccccc1)C(=O)O (stereo unspecified)	2.9%	6%	-9%	-9
COc1ccc(C2CC(c3ccc(Cl)cc3)=NN2C(C)=O)cc1 (stereo unspecified)	-1.9%	-41%	-4%	·
CC(C)C[C@H](NC(=O)c1nc[nH]c1C(=O)NCC(=O)OCc1ccccc1)C(=O)OCc1ccccc1	7.3%	9%	8%	·
CCC(C)NS(=O)(=O)c1ccc(OCC(=O)N2CCC(C)CC2)cc1 (stereo unspecified)	0.9%	-5%	2%	0
c1ccc(-c2noc(-c3ccc4c(c3)OCO4)n2)cc1	3.1%	-64%	-10%	3
COc1cccc(N2CCN(c3ccc4nnc(CCC(=O)Nc5ccccc5OC)n4n3)CC2)c1	-2.9%	7%	13%	·

The results go on.
SMILES	Rango-impB inh	miR-21 FLuc	Rango release inh	GLA inh pH 4.5
CCOc1ccc(NC(=O)c2cc(OC)nc3ccccc23)cc1	-0.3%	4%	-1%	·
COc1cccc(CN2CC(C(=O)NCCc3ccc(C)o3)CCC2=O)c1 (stereo unspecified)	?	-3%	-18%	·
O=C(c1cc2cc(Br)ccc2[nH]1)N1CCc2ccccc21	-1.8%	-16%	-1%	·
COc1cccc(OC)c1OCC(O)CN1CCN(c2ccccc2)CC1 (stereo unspecified)	1.0%	-9%	-5%	1
O=C(/C=C/c1ccco1)NCCc1ccccc1	-0.1%	-47%	0%	-1
CC(C)CCC(C)NC(=O)C1CCN(S(=O)(=O)/C=C/c2ccccc2)CC1 (stereo unspecified)	5.5%	-2%	13%	·
CCCCS/C(N)=N/N=C/c1ccccc1O	4.4%	-48%	-2%	-2
O=C(Nc1cc2c(cc1C(=O)O)OCCCO2)c1ccc(C(F)(F)F)cc1	3.4%	-72%	0%	·
COc1ccc(N(CC(O)CN2C(=O)NC(C)(C)C2=O)S(=O)(=O)c2ccc(C)cc2)cc1 (stereo unspecified)	1.3%	-6%	-10%	5
COc1ccc(CN2CCN(Cc3cccc(Oc4ccccc4)c3)CC2)c(OC)c1OC	-0.2%	-6%	-2%	·
CCOc1ccc(NC(C)C(=O)N/N=C/c2cccs2)cc1 (stereo unspecified)	7.4%	-21%	6%	-8
Cc1ccc(NC2CCCN(C(=O)c3cnc4ccccn4c3=O)C2)cc1C (stereo unspecified)	-3.0%	0%	-18%	·
Cc1ccc(CNC(=O)COC(=O)C2CCC2)cc1	-0.7%	·	-6%	·
O=C(COc1ccccc1)N/N=C/c1cc2c(cc1[N+](=O)[O-])OCO2	0.2%	-18%	3%	9
Cc1ccc2nc(NC(=O)COC(=O)c3cccnc3)sc2c1	?	·	33%	·

In the list so far, 3 have a COOH group:
SMILES	Rango-impB inh	miR-21 FLuc	Rango release inh	GLA inh pH 4.5
CCCN(C(=O)c1ccc2c(SCC(=O)O)c3c(nc2c1)CCC3)c1cccc(C)c1	-3.0%	-2%	-4%	·
CSCCC(N=C(NS(=O)(=O)c1ccc(C)cc1)c1ccccc1)C(=O)O (stereo unspecified)	2.9%	6%	-9%	-9
O=C(Nc1cc2c(cc1C(=O)O)OCCCO2)c1ccc(C(F)(F)F)cc1	3.4%	-72%	0%	·

Some of the compounds tested, so the mix of outcomes need not match the whole.
